Screens as filed in PubChem BioAssay.
Vaccinia Venus: qHTS for Stage-Specific Inhibitors of Vaccinia Orthopoxvirus: Venus Reporter Primary qHTS; actives 0.46% (n = 330,000); Potency, µM (doses to about 36.5 µM), inactives show top-dose activity change, negative = inhibition, most hits filed as inhibitors; Vaccinia virus Venus reporter expression, fluorescence; AID 720580, 2013; active means well fitted inhibition curve with a large enough effect; inconclusive means small, poorly fitted or top-dose-only effect; inactive means no such curve, though single readings can be large or run the other way; tested in A549 cells; further: nearly all actives have a fitted effect of over 30% in size; inactives centre near -10
Vaccinia mCherry: qHTS for Stage-Specific Inhibitors of Vaccinia Orthopoxvirus: mCherry Reporter Primary qHTS; Vaccinia virus mCherry reporter infection, fluorescence; about a quarter of the inactives have no number; Potency, µM (highest dose often 36.5 µM), inactives show top-dose activity change, negative = inhibition, actives largely listed as inhibitors; actives 0.63% (n = 310,000); AID 720579, 2013; active = well fitted inhibition curve with a large enough effect; inconclusive = small, poorly fitted or top-dose-only effect; inactive = no such curve, though single readings can be large or run the other way; tested in A549 cells; further: nearly all actives have a fitted effect of over 35% in size; inactives centre near -10
* marks the source's active call; other numbers are inactive results; i = inactive; u = inconclusive; x = not tested or not shown; & = joins results of further samples; [ ] = another dose, or the depositor's remark. On the % scale 0 is the no-effect control and ±100 the full control effect; potency means the concentration at half of the fitted maximal effect.

SMILES | Vaccinia Venus | Vaccinia mCherry
COc1cccc(C(C(=O)NCc2ccccc2)N2CCN(C(=O)C3CCCO3)CC2)c1OC (stereo unspecified) | -14% | -5%
O=C(NC1CCS(=O)(=O)C1)c1sc2ccccc2c1Cl (stereo unspecified) | -13% | -19%
COc1ccc(N2CCN(C(=O)CCN3C(=O)c4ccccc4S3(=O)=O)CC2)cc1 | -13% | x
CN(C)C(=S)NC(=O)c1cccc(Cl)c1 | -15% | -3%
CCOC(=O)C1CCCN(S(=O)(=O)c2cc(Br)cc3c2N(C(=O)C2CC2)CC3)C1 (stereo unspecified) | -21% | -28%
COc1ccc(C(=O)N/C(=C/c2cccs2)C(=O)NN)cc1OC | -11% | -18%
CC(C)C1Nc2ccc(C(=O)NCc3ccco3)cc2NC1=O (stereo unspecified) | -3% | -1%
CCOc1ccc(NC(=O)CCC(=O)N2CCSc3ccccc32)cc1 | 1%&-15% | -13%
O=C(Nc1ccccc1)c1ccc(=O)[nH]n1 | -12% | i
Cc1cc(C)c2c(c1)N[C@H](c1cccs1)[C@@H]1CCO[C@H]21 | 5% | u
COc1cccc2c1c(NC(=O)Nc1ccc(F)cc1F)nn2C | -20% | i
Cc1ccc(NC(=O)C(CC(=O)O)C2CCCO2)c(C)c1 (stereo unspecified) | 9% | -10%
CSCCC(NC(=O)c1ccco1)C(=O)N1CC=C(c2ccccc2)CC1 (stereo unspecified) | -11% | -15%
COc1ccc(C(=C(CC(=O)O)C(=O)OC(C)(C)C)c2cc(OC)c(OC)c(OC)c2)cc1OC | -1% | i
CCOC(=O)C1CCCN(c2c(NCCN(C)Cc3ccccc3)c(=O)c2=O)C1 (stereo unspecified) | -12% | i
O=C1OC(=O)c2c(Br)c(Br)c(Br)c(Br)c21 | -8% | i
CCOC(=O)c1cc(-c2csc(COc3ccc(Cl)cc3)n2)on1 | -8%[7.34 µM] | i[7.34 µM]
COCCCNC(=O)c1cc2c(=O)n3cccc(C)c3nc2n(C(C)C)c1=N | 3% | -11%
c1csc(-c2nc3ccccc3s2)c1 | -5% | -10%
O=C(CN1CCCC1)Nc1ccc(F)c(Cl)c1 | 4% | -14%

Overlap with the part before: two entries, then new ones.
SMILES | Vaccinia Venus | Vaccinia mCherry
c1csc(-c2nc3ccccc3s2)c1 | -5% | -10%
O=C(CN1CCCC1)Nc1ccc(F)c(Cl)c1 | 4% | -14%
CCCCNC(=O)CCCn1c(=O)c2ccccc2n(CC(=O)Nc2ccccc2OCC)c1=O | u | u
COCCNC(=O)CCc1nnc(C2(c3ccc(Cl)cc3)CCC2)o1 | -2% | i
O=C(N1CCOCC1)N1CCN(S(=O)(=O)c2ccc(Cl)cc2)C1 | -1% | -14%
Cc1c(C(=O)NCC2CCCO2)sc2nc(-c3ccccc3)cn12 (stereo unspecified) | -9% | 1%
COc1cc2c(c(O)c1OC)C(=O)C(OC)CCC2 (stereo unspecified) | -14% | x
O=C(NC1CCCCCC1)C(=S)N1CCCC1 | -11% | -3%
Cc1ccc(/C=N/Nc2nnc(Cc3ccccc3)c(=O)[nH]2)o1 | -12% | i
Cn1c(N)c(C(=O)COC(=O)Cc2ccc(Br)cc2)c(=O)n(C)c1=O | -10% | -3%
COc1ccc(NC(=O)N(CCCN(C)C)Cc2cc3cc(OC)ccc3[nH]c2=O)cc1 | -8% | -17%
O=S(=O)(NC1CCCCCC1)c1ccc(Br)s1 | -14% | -18%
c1ccc(COc2ncnc3c2ncn3CCCNCc2cccs2)cc1 | -16% | -12%
COc1ccc(CNC(=O)C(c2ccco2)N(C(=O)c2ccccn2)c2ccccc2)cc1 (stereo unspecified) | -10% | i
Cc1ccccc1NC(=O)c1ccc(N(Cc2ccccc2)S(C)(=O)=O)cc1 | -7% | 1%
NC(=O)NN=C1CCN2CCCc3cccc1c32 | -12% | -10%
O=C(Nc1nc(-c2cccc3ccccc23)cs1)c1ccc2c(c1)S(=O)(=O)c1ccccc1C2=O | -6% | 7%
O=C(NCCc1ccccc1)C1CCN(S(=O)(=O)c2cccs2)CC1 | -16% | -11%
COc1ccc(CCNC(=O)Cn2c(=O)n(Cc3ccco3)c(=O)c3ccc(Cl)cc32)cc1OC | -1% | -14%
CCOC(=O)c1ccc(N2CCN(c3cccc(Cl)c3)CC2)c(NC(=O)Nc2ccc(Cl)cc2)c1 | -13% | -13%
COc1cc(C2OCC3C(c4ccc(OC5OC(CO)C(O)C(O)C5O)c(OC)c4)OCC23)ccc1O (stereo unspecified) | -5% | -5%
CC(=O)Oc1ccccc1C(=O)C=Cc1cccc([N+](=O)[O-])c1 | u | 14µM*

For convenience, two of the compounds above.
SMILES | Vaccinia Venus | Vaccinia mCherry
COc1ccc(CNC(=O)C(c2ccco2)N(C(=O)c2ccccn2)c2ccccc2)cc1 (stereo unspecified) | -10% | i
Cc1ccccc1NC(=O)c1ccc(N(Cc2ccccc2)S(C)(=O)=O)cc1 | -7% | 1%

The list continues.
SMILES | Vaccinia Venus | Vaccinia mCherry
COc1ccc(CCNC(=O)c2cc3c(=O)oc4ccc(C)cc4c3s2)cc1OC | 8% | -1%
CC(C)(C)CC(C)(C)NCC(O)COCCOc1ccc(Br)cc1 (stereo unspecified) | 10µM* | 13µM*
COCC(=O)Nc1cc(C)cn(Cc2ccccc2Cl)c1=O | -14% | i
CCOc1ccc(NC(=O)CCN2CCN(S(=O)(=O)c3ccc(OC)cc3)CC2)cc1 | -8% | -10%
O=C1CN=C(Nc2ccccc2Cl)N1c1ccccc1 | 5% | -19%[1.46 µM]
Cc1ccc(C(=O)N2CCN(c3cnn(C)c(=O)c3Cl)CC2)cc1 | -27% | -7%
CCC1S/C(=C(\C#N)C(N)=O)N(c2ccc(F)cc2)C1=O (stereo unspecified) | -5% | x
CCOc1ccc(NC(=O)CSc2ccc(-c3ccco3)nn2)cc1 | -6% | -11%
C=CCn1c(C)cc(-c2csc(NC)n2)c1C | 23% | 8%
Cc1cccc(C)c1NC(=O)N1CCCC1C(=O)Nc1ccc(-n2cnnn2)cc1 (stereo unspecified) | 3% | -1%
COc1ccc(N(C(C)=O)S(=O)(=O)c2cccs2)cc1 | -14% | i
O=C(O)C1CCCN1c1nc(Cl)ccc1[N+](=O)[O-] (stereo unspecified) | -11% | -19%
NC(=O)c1nc2c([nH]c1=O)CCCC2 | -6% | i
N#Cc1ccsc1NC(=O)c1cccc(-n2cnnn2)c1 | 8% | -1%
COc1cc(SC#N)ccc1N=Cc1c(C)[nH]n(-c2cccc3ccccc23)c1=O | -16% | x
Cc1ccc(NC(=O)CC2S/C(=N/N=C/c3c[nH]c4ccccc34)NC2=O)cc1 (stereo unspecified) | -1% | i
O=C(CN1CCN(C(=O)C2CC2)CC1)Nc1ccc(Cl)cc1F | -5% | i
O=C(CN1CCNCC1)NCCSc1ccc(Cl)cc1 | -24% | -16%
COc1ccc(S(=O)(=O)N2CCC(C(=O)NCCc3ccc(OC)c(OC)c3)CC2)cc1 | -15% | i
Cc1ccc2oc(-c3ccc(C)c(NC(=O)c4ccc(-c5ccccc5[N+](=O)[O-])o4)c3)nc2c1 | 15% | -1%

The final 5 compounds of the section before open the next one:
SMILES | Vaccinia Venus | Vaccinia mCherry
Cc1ccc(NC(=O)CC2S/C(=N/N=C/c3c[nH]c4ccccc34)NC2=O)cc1 (stereo unspecified) | -1% | i
O=C(CN1CCN(C(=O)C2CC2)CC1)Nc1ccc(Cl)cc1F | -5% | i
O=C(CN1CCNCC1)NCCSc1ccc(Cl)cc1 | -24% | -16%
COc1ccc(S(=O)(=O)N2CCC(C(=O)NCCc3ccc(OC)c(OC)c3)CC2)cc1 | -15% | i
Cc1ccc2oc(-c3ccc(C)c(NC(=O)c4ccc(-c5ccccc5[N+](=O)[O-])o4)c3)nc2c1 | 15% | -1%
COc1ccccc1NS(=O)(=O)c1ccc(NN=C2CCCC2)c([N+](=O)[O-])c1 | -30% | -19%
O=C(N/N=C/C(Br)=C/c1ccccc1)c1cc(-c2ccco2)[nH]n1 | -25% | u
CN(C)c1ccc(/C=C2\c3ccccc3C(=O)N2c2ccccc2)cn1 | -25% | -26%
COC(=O)c1ccccc1NC(=O)CCn1nc(C)c2c(C)n(-c3ccccc3)nc2c1=O | -9% | -15%
CC(C)OC(=O)c1nnc(Cc2ccc(Cl)cc2)o1 | 1% | -1%
O=C(NCCc1ccccc1)c1c(O)c2cccc3c2n(c1=O)CC3 | 1% | -2%
CC1=C(c2ccc(C)cc2)S(=O)(=O)NC1=NCc1ccccc1Cl | -26% | -29%
Cc1ccc(-c2nnc(SCC(=O)Nc3ccc(N4CCOCC4)cc3)o2)cc1 | -4% | -10%
CCOC(=O)c1ccc(N2Cc3ccccc3C2=N)cc1 | 1% | -13%
O=C(NNC(=S)NC(=O)c1cccs1)c1ccc(NC(=O)c2ccccc2)cc1 | -18% | 0%
S=c1[nH]nc(COc2ccccc2)n1C1CCCCC1 | -1% | x
COC(=O)[C@]1(Cc2ccccc2)N[C@H](CN(C)C(=O)C2CCCCC2)[C@@H]2C(=O)N(C)C(=O)[C@@H]21 | -4% | -10%
Cc1nc2nc(CNC(=O)OC(C)(C)C)nn2c(C)c1CCC(=O)Nc1ccc2c(c1)OCO2 | u | u
COc1ccc(S(=O)(=O)Nc2c(C(=O)O)[nH]c3ccccc23)cc1OC | -3% | i
CC1CCN(S(=O)(=O)c2ccc3c(c2)c(=O)c(C(=O)NCCc2ccccc2)cn3C)CC1 | -4% | -10%
O=C(c1ccccc1)c1ccccc1C(=O)N1CCN(C(=O)c2ccccc2)CC1 | -1% | i
COC(=O)Cc1ccc2c3ccccc3n(C)c2c1 | -3% | i
CCO[C@@H]1OC(C(=O)N2CCN(Cc3ccc4c(c3)OCO4)CC2)=C[C@H](C2CC2)[C@H]1CCCO | -15% | u
CCOc1ccc2nc(NCCNC(=S)NCCCN(C)C)c(C#N)cc2c1 | u | -19%
Cc1c(CCC(=O)O)c(=O)oc2cc3occ(-c4ccc(Br)cc4)c3cc12 | -12% | u
O=C(NCc1ccccn1)C1CCCCC1 | 0% | 7%
O=C(NC1CCCCC1)C1c2ccccc2OCC(=O)N1Cc1cccnc1 (stereo unspecified) | -1% | 47%[activator]
COC(=O)CCc1nc2ccccc2nc1OC | -8% | i
CC(=O)Nc1ccc2nc(NS(=O)(=O)c3ccc(C)cc3)sc2c1 | -7% | i
CCn1c(Cl)c(C=O)s/c1=N\S(=O)(=O)c1ccccc1 | u | u
COc1cc(NC(=O)CCCC(=O)OCC(F)(F)C(F)F)nc(OC)n1 | -10% | -12%
Cc1onc(-c2c(Cl)cccc2Cl)c1C(=O)N=S(C)(=O)c1ccccc1 (stereo unspecified) | -19% | -22%
COc1ccc(CNCC(O)COc2cccc3c2OC(C)(C)C3)cc1 (stereo unspecified) | -22% | u
CCOc1ccc(/C=C(\C#N)C(=O)c2c(C)[nH]c3ccccc23)cc1OC | -5% | i
O=C1CC[C@@H](C(=O)N2CSC[C@@H]2C(=O)Nc2ccc(C(F)(F)F)cc2)N1 | -13% | -3%
c1ccc(CC2CCN(c3nc4ccccc4n4cnnc34)CC2)cc1 | -5% | -9%
CN(C(=O)COC(=O)c1cccnc1Cl)C1CCCCC1 | -19% | -20%
Cc1nnc(N2CCCC(C(=O)Nc3cc(F)ccc3F)C2)c2nn(-c3ccccc3)c(C)c12 (stereo unspecified) | u | u
CCOc1ccc(C(=O)N[C@H](C(=O)Nc2cccc(S(=O)(=O)N3CCOCC3)c2)C(C)C)cc1 | -18% | -5%
CN(C)/C=C(\C#N)S(=O)(=O)c1ccccc1 | -5% | i
O=C(CNCC1CCCO1)N1CCN(S(=O)(=O)c2ccc3ccccc3c2)CC1 (stereo unspecified) | -23% | u
Cc1nc(C#N)nc(Oc2ccccc2)c1Cl | -19% | -27%
Cc1ccc(CNC(=O)c2cccc3c2C(=O)c2ccc(N4CCC(C)CC4)cc2S3(=O)=O)cc1 | 3% | -16%
O=C(Cn1ncc(Cl)c(Cl)c1=O)NC(=O)NC1CCCCC1 | u | -35%
Cc1ccc(-c2onc(C)c2C)cc1S(=O)(=O)Nc1cccc(Cl)c1C | -27% | -28%
Cc1noc(/C=C/N(C)C)c1S(=O)(=O)N1CCCC(C(=O)NCc2ccco2)C1 (stereo unspecified) | 4% | i
CC1Cc2cc(/C=C3/SC(=S)N(C)C3=O)ccc2O1 (stereo unspecified) | -5% | i
N#Cc1cc(-c2ccccc2)oc1/N=C/c1ccccc1O | -5% | -5%
CCOc1ccc(NC(=O)CCN2CCN(c3ccccc3)CC2)cc1 | -16% | i
S=c1[nH]nc(-c2ccccc2Cl)n1CC1CCCO1 (stereo unspecified) | -6% | -13%
NC(=O)CC(NC(=O)c1ccc(Br)cc1)c1ccc(N2CCN(c3ccccn3)CC2)c([N+](=O)[O-])c1 (stereo unspecified) | -28% | -15%
CCn1cc(CN2CCC(n3nccc3NC(=O)C3CCCC3)CC2)cn1 | -14% | i
COCCCNC(=O)C[C@@H]1C[C@@]2(C(=O)OC)CCCCC=C2N(Cc2cccc3ccccc23)C1=O | -7% | 20%
CCOC(=O)c1ccc(NC(=O)CSc2nnc(C)n2-c2ccccc2)cc1 | -6% | -13%

As entered above:
In Vaccinia mCherry, COc1ccc(C(=O)N/C(=C/c2cccs2)C(=O)NN)cc1OC reads -18%
In Vaccinia mCherry, COc1ccc(CCNC(=O)Cn2c(=O)n(Cc3ccco3)c(=O)c3ccc(Cl)cc32)cc1OC reads -14%
In Vaccinia Venus, Cc1onc(-c2c(Cl)cccc2Cl)c1C(=O)N=S(C)(=O)c1ccccc1 (stereo unspecified) reads -19%
